supercomplex = modulators of mitochondrial supercomplex assembly, cell-based, luminescence, Hoechst nuclei count (AID 1645838); Cells, luminescence/Hoechst cell count ratio, supercomplex reporter; stronger effect = higher value; z-score at 11 µM unless noted; 2,000 tested, 5% active;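 active = mean z-score of two plates above 1.96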;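 note: control cybrid cells; higher means more mitochondrial supercomplex formation; U2OS-based cells read after two days; 0 = mean of sample wells on the plate; doses worked out from stocks diluted about 900-fold with the highest of each compound shown; many of its hits are not listed in these tables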
supercomplex cell count = further read-out of supercomplex, marked with its call; cell count; measured here: cell number, Hoechst nuclei count;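 nuclei per well as mean of two plates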
* hit, by the source's call; i = inactive; . = not tested or not shown.

SMILES	supercomplex	supercomplex cell count
O=C(c1cc(Cc2n[nH]c(=O)c3ccccc23)ccc1F)N1CCN(C(=O)C2CC2)CC1	2.5*	3719*
CC(C)CC(=O)Nc1n[nH]c2c1CN(C(=O)C1CCN(C)CC1)C2(C)C	i	.
COc1cc(OC)c2c(=O)[nH]c(-c3cc(C)c(OCCO)c(C)c3)nc2c1	1.3	4535
COc1cc2c(Oc3ccc4[nH]c(C)cc4c3F)ncnc2cc1OCCCN1CCCC1	0.42	3819
Cc1cc2c(s1)Nc1ccccc1N=C2N1CCN(C)CC1	-0.41	5900
CN1CCc2c(c3ccccc3n2Cc2ccc(C(=O)NO)cc2)C1	0.03	4772
O=C(CNC(=O)c1cccc(C(F)(F)F)c1)NC1CCN(Cc2ccc(Cl)cc2)C1 (centres undefined)	-0.57	5016
CC(Nc1ncnc2nc[nH]c12)c1cc2cccc(Cl)c2c(=O)n1-c1ccccc1 (centres undefined)	0.38	4446
CCC1C(=O)N(C)c2cnc(Nc3ccc(C(=O)NC4CCC(N5CCN(CC6CC6)CC5)CC4)cc3OC)nc2N1C(C)C (centres undefined)	i	.
COc1nc(C)nc(Cl)c1NC1=NCCN1	-0.25	5176

Record cards (already shown). Order of values: supercomplex, supercomplex cell count
CCC1C(=O)N(C)c2cnc(Nc3ccc(C(=O)NC4CCC(N5CCN(CC6CC6)CC5)CC4)cc3OC)nc2N1C(C)C (centres undefined) is listed as i, .
Cc1cc2c(s1)Nc1ccccc1N=C2N1CCN(C)CC1 is listed as -0.41, 5900
COc1cc2c(Oc3ccc4[nH]c(C)cc4c3F)ncnc2cc1OCCCN1CCCC1 is listed as 0.42, 3819
COc1cc(OC)c2c(=O)[nH]c(-c3cc(C)c(OCCO)c(C)c3)nc2c1 is listed as 1.3, 4535
CN1CCc2c(c3ccccc3n2Cc2ccc(C(=O)NO)cc2)C1 is listed as 0.03, 4772

The list goes on.
SMILES	supercomplex	supercomplex cell count
COc1cc(Nc2c(C#N)cnc3cc(OCCCN4CCN(C)CC4)c(OC)cc23)c(Cl)cc1Cl	i	.
COc1cc(N2CCC(N3CCN(C)CC3)CC2)ccc1Nc1ncc(Cl)c(Nc2ccccc2S(=O)(=O)C(C)C)n1	i	.
COc1c(O)cc2c(c1O)[C@@H]1OC(CO)C(O)C(O)[C@@H]1OC2=O (some centres undefined)	-0.14	5180
Cc1nc2ccc(-n3ncc(C(=O)c4cc5ccccc5[nH]4)c3N)cc2[nH]1	5.3*	3408*
COc1cc(C)c(Sc2cnc(NC(=O)c3ccc(CNC(C)C(C)C)cc3)s2)cc1C(=O)N1CCN(C(C)=O)CC1 (centres undefined)	i	.
CCN(CCCOc1ccc2c(Nc3cc(CC(=O)Nc4cccc(F)c4)[nH]n3)ncnc2c1)CCOP(=O)(O)O	i	.

Some of the entries so far, in markdown.
| SMILES | supercomplex | supercomplex cell count |
| --- | --- | --- |
| CN1CCc2c(c3ccccc3n2Cc2ccc(C(=O)NO)cc2)C1 | 0.03 | 4772 |
| O=C(CNC(=O)c1cccc(C(F)(F)F)c1)NC1CCN(Cc2ccc(Cl)cc2)C1 (centres undefined) | -0.57 | 5016 |

Source: PubChem BioAssay (ICCB-Longwood Screening Facility, Harvard Medical School)

An excerpt; rates above refer to the full screens.
